Rce1 inh: yeast Rce1p protease inhibitors, primary screen, biochemical, fluorescence, cell-free homogeneous | calls only | AID 2563, 2010 | 290,000 compounds, 0.27% hits | yeast membranes, quenched prenylated peptide cleavage fluorescence;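 active = fall in fluorescence gain of 50% or more versus controls, with final raw signal at or below 3038400; inconclusive = same 50% fall but final raw signal above 3038400; inactive = fall in fluorescence gain under 50%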;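 also: plate controls were neutral control wells for no effect and wells lacking membranes for full effect; tested at 10 µM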
MT1-MMP act inh: blockers of MT1-MMP proenzyme processing, primary screen, HT1080 RFP-PRO-GFP cells, GFP/RFP fluorescence | GFP/RFP ratio change, % at 20 µM | GFP/RFP ratio fluorescence, overnight; percent of plate control window, DMSO zero | Matrix metalloproteinase-14 (Homo sapiens), P50281 | 360,000 compounds, 0.061% hits;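 active = GFP/RFP ratio change of at least 30% with cell ATP level not reduced by more than half and red fluorescence within 50% of control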; also: strong numbers were not always called active
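Material: RFP-PRO-GFP reporter HT1080 cells. Dosing: single-point 20 µM compound, 1% DMSO. Controls: DMSO and RFP-L50D-GFP cell wells. Timing: cells overnight before dosing, compound overnight, 37 °C, 5% CO2. Measure: GFP/RFP fluorescence ratio.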
eIF4H FP inh: human eIF4H binding inhibitors, primary screen, translation initiation inhibitor project, biochemical, uHTS, fluorescence polarization; Eukaryotic translation initiation factor 4H (Homo sapiens), Q15056; eIF4H fluorescence polarization binding assay; inhibition, % at 35 µM; 290,000 compounds, 0.94% hits;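 active = 50% or more with normal probe brightness, or confirmed in later tests; inconclusive = above 50% with abnormal brightness, or retests that disagree; inactive = below 50% or failed in later tests; about a fifth of its hits are not listed in these tables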;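 also: calls also rest on retests at 20 µM and on dose response follow-up; 0% = protein and probe with vehicle and 100% = probe without protein; strong numbers were not always called active; many hits fall short of the cut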
CSC inhib: cancer stem cell viability inhibitors, primary screen, luminescence; cancer stem cell-like cells viability; inhibition, % at 7.5 µM; 300,000 compounds, 1.1% hits;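 active = mean at 75% or more and at least half the replicates too; inconclusive = mean and replicates disagree; tested in HMLE shEcad cells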;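 also: 0% = median of negative and 100% = median of positive control wells; the first replicate is given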
PABP polyA inh: PABP poly(A) RNA binding inhibitors, primary screen, biochemical, fluorescence polarization, uHTS. Polyadenylate-binding protein 1 (Homo sapiens), P11940. inhibition, % at 35 µM. 290,000 compounds, 1% hits. AID 2014, 2009;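 active = 50% or more with normal probe brightness, or confirmed in later tests; inconclusive = above 50% with abnormal brightness, or retests that disagree; inactive = below 50% or failed in later tests; about a fifth of its hits are not listed in these tables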;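 also: calls also rest on retests at 20 µM and on dose response follow-up; controls were probe without protein and protein plus probe with vehicle; some compounds called inactive have numbers as strong as hits; many hits fall short of the cut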
Target sequence (P11940 whole entry, looked up): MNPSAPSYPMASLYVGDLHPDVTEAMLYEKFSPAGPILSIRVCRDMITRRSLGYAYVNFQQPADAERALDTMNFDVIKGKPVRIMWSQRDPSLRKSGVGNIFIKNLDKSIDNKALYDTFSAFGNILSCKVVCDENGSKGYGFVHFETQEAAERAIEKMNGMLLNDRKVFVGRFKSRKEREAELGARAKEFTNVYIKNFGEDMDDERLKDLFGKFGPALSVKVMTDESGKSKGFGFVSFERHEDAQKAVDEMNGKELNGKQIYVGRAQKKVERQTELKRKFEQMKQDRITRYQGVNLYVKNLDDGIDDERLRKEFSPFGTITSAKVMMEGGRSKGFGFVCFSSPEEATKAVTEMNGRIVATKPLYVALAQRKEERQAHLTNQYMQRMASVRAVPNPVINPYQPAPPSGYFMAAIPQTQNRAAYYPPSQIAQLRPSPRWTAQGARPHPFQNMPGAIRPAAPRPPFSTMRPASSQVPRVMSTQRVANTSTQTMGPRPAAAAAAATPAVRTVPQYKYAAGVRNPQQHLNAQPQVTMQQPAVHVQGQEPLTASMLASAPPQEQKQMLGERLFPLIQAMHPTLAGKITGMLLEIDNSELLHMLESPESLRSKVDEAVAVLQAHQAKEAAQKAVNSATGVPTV
UUG fidelity: modulators of yeast start codon fidelity, primary screen, whole organism, S. cerevisiae, single point, plate reader; S. cerevisiae UUG-firefly luciferase reporter, luminescence/redox ratio; activity score, % at 18.7 µM; 350,000 compounds, 0.13% hits; AID 602363, 2012;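 active = replicate mean at a twofold rise or more, about +100% in these data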;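 also: firefly luciferase made from a UUG start codon reports start codon fidelity; reporter light over untreated wells divided by growth signal over untreated wells; some hits fall short of that in this replicate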
Env fusion inh: inhibitors of HIV-1 Env-driven cell-cell fusion, primary screen, HeLa-JRFL effector, CEM21 target cells, luciferase; AID 651610, 2012; 360,000 compounds, 1.1% hits; inhibition, % at 12.3 µM;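 active = mean replicate inhibition score of at least 50 and every replicate individually at or above 50; inconclusive = only one of the two criteria met; inactive = mean below 50 and not all replicates reaching 50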;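 also: 0% = plate neutral controls and 100% = maraviroc near 300 nM; one replicate is shown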
MT1-MMP act inh RFP: also measured in MT1-MMP act inh; calls as there; RFP signal change, %; measured here: RFP expression control read;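 0 = vehicle wells; hits needed this value within 50% of zero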
* marks the source's active call; other numbers are inactive results; i = inactive; ? = inconclusive; nt = not tested or not shown; + = active, no number. An excerpt; count on the stated rates, not on these rows.

SMILES	Rce1 inh	MT1-MMP act inh	MT1-MMP act inh RFP	eIF4H FP inh	CSC inhib	PABP polyA inh	UUG fidelity	Env fusion inh
CC(=O)c1ccccc1OCCCCN1CCCCC1	i	2.4	8.6	-1.4	-3.6	5.5	5.1	-27.9
CCOC(=O)C1(C)CCCN(C(=O)c2ccc3snnc3c2)C1 (stereo not given)	nt	0.9	3.4	nt	nt	nt	-8.9	8.9
N#C/C(=C\c1ccc(F)cc1)c1n[nH]c(Cn2cncn2)n1	i	0.5	-0.2	1.1	10.4	-5.1	nt	nt
CC(=O)NC(=C(Cl)Cl)S(=O)(=O)c1ccccc1	i	-0.2	-4.2	4.3	16.1	3.9	nt	-94.7
O=C(COC(=O)c1ccccc1Br)NCc1cccs1	nt	-1.5	0.7	nt	0.3	nt	-16.1	nt
CC(C)Cc1nnc(NC(=O)CCC(=O)N2CCN(c3ccc(Cl)cc3)CC2)s1	i	1.4	-11.4	-8.0	-6.9	-1.0	-6.2	6.4
Cc1c(OCC(=O)N2CCC[C@@H]2C(=O)O)ccc2c3c(c(=O)oc12)CCC3	i	1.3	3.8	4.5	-7.8	19.1	7.4	nt
O=C(NN=C1C2CC3CC1CC(Cl)(C3)C2)c1ccccn1	i	2.3	5.1	-3.0	-11.7	-19.5	-12.8	-13.1
Cc1nnsc1SCCNC(=O)Nc1ccc(Cl)cc1	i	0.0	-2.7	-1.7	2.3	-9.5	nt	-11.6
COc1ccccc1N1CCN(C(=O)CN(c2ccccc2OC)S(=O)(=O)c2ccccc2)CC1	i	12.8	-2.2	-7.4	-8.2	-5.0	1.2	-26.5
O=C(O)C1CC=CCC1C(=O)N1CCCC1 (stereo not given)	i	-2.3	5.9	-0.7	-6.1	-6.3	1.9	nt
O=C(CN1C(=O)/C(=C\c2cccc(Br)c2)Oc2ccccc21)NCC1CCCO1 (stereo not given)	+	0.6	-0.9	-0.1	3.1	21.0	-1.8	2.3
COc1ccc(CCNC(=O)CSc2ncnc3c2oc2ccccc23)cc1OC	i	1.4	1.8	-3.2	-12.5	-9.9	0.1	nt
O=S(=O)(c1cccc(-c2nnc3n2CCCCC3)c1)N1CCOCC1	i	-0.5	0.3	-0.3	0.2	1.0	-0.4	6.6
CC(=O)Nc1ccc(NC(=S)NC(=O)c2ccc([N+](=O)[O-])cc2)cc1	i	12.0	3.3	3.0	-7.5	3.3	-15.3	-10.8
CCO[C@H]1OC(C(=O)NC2CC2)=C[C@@H](c2c[nH]c3ccccc23)[C@@H]1CCCO	i	-1.0	-1.8	-2.8	-11.4	5.6	-4.6	-5.2
CC1CN(C(=O)CCN2C(=O)c3ccccc3C2=O)CC(C)O1 (stereo not given)	i	-1.3	2.5	0.4	-3.4	4.6	-5.5	nt
COC(=O)c1ccsc1NC(=O)CN1CCN(Cc2ccc3c(c2)OCO3)CC1	i	-2.0	-2.3	-13.1	-8.8	-5.4	0.0	3.7
CNC(=S)NNC(=O)c1sccc1OCc1ccccc1	i	0.1	1.3	-2.5	-7.0	-0.3	4.9	-36.1
Cc1ccc(SCC(=O)NC(C)c2ccccc2)cc1 (stereo not given)	i	-3.4	-1.5	-3.5	-6.8	5.6	2.0	8.9
O=C(NCCCCCCNC(=O)OCCO)OCCO	i	4.5	7.0	5.0	-11.9	?	nt	0.0
CCOC(=O)c1c(NC(=O)COC(=O)c2ccccc2NC)sc(C(=O)N(C)C)c1C	i	0.1	-17.0	-9.7	nt	-8.3	5.5	14.9
Cc1ccc(NC(=O)Cn2c(CCC(=O)O)ccc2-c2cccs2)cc1Cl	i	-1.1	-1.4	7.9	1.7	-2.0	nt	8.0
CSC1=C(C#N)C(CC(C)C)C2=C(CCCC2=O)N1 (stereo not given)	i	2.5	-1.8	-5.3	-8.3	-5.7	nt	nt
CCOC(=O)C1=C(O)C(=O)N(c2ccc(S(N)(=O)=O)cc2)C1c1ccccc1 (stereo not given)	i	-2.0	0.8	-0.2	7.9	0.4	-3.5	nt

Later entries.
SMILES	Rce1 inh	MT1-MMP act inh	MT1-MMP act inh RFP	eIF4H FP inh	CSC inhib	PABP polyA inh	UUG fidelity	Env fusion inh
COc1ccccc1N1CCN(CC(=O)Nc2ccccc2C(=O)NC(C)c2ccccc2)CC1 (stereo not given)	nt	1.6	1.6	nt	-8.2	nt	14.1	5.9
CC(C)(C)OC(=O)N(CCc1ccccc1)Cc1ccccc1OCc1cccc(NC(=O)C2CC2)c1	nt	7.9	-12.8	nt	nt	nt	-0.9	0.3
Cc1cccc(C)c1NC(=O)C[n+]1cc(-c2ccccc2)n2c1CCC2	i	1.0	0.0	1.3	-8.6	0.4	-8.8	7.0
Cc1ccc(C2(c3noc(CN4CCOCC4)n3)CCCC2)cc1	i	7.3	3.7	-2.0	-9.5	-9.2	-10.9	-1.1
CCc1nnc(NC(=O)c2ccco2)s1	nt	2.5	-1.0	nt	nt	nt	-15.1	-15.3
O=C(Nc1ccc(-c2nnc(-c3ccco3)o2)cc1)C(c1ccccc1)c1ccccc1	i	3.4	-2.7	-8.2	-9.9	-3.4	-9.7	nt
CCN(CC)c1cc(Cl)nc(N)n1	i	-0.2	4.9	7.3	-15.6	7.1	nt	-27.8
CCNC(=O)NC(=O)C(C)OC(=O)Cc1coc2cc3c(cc12)CCC3 (stereo not given)	nt	-2.0	0.7	9.4	-0.1	8.0	nt	1.9
CC(C)Cn1c(SCC#N)nc2ccccc2c1=O	i	-0.8	-0.4	-2.9	62.6	-4.3	9.6	nt
CC(C)(C)N(NC(=O)OCc1ccccc1)C(=O)c1ccccc1Cl	i	-3.0	-1.7	1.5	-1.4	-7.1	-13.6	28.7
Cc1ccc(Nc2n[nH]c(C)c2[N+](=O)[O-])cc1	i	2.1	-2.3	0.6	-2.9	0.9	-14.4	nt
COCCN1C(=O)c2ccccc2C(C(=O)NCCN(C)C)C1c1ccc(F)cc1 (stereo not given)	i	-5.0	0.9	-5.2	1.0	2.2	-2.4	-48.1
CCOC(=O)c1[nH]ncc1CN1CCCC(C(=O)c2cc(Cl)ccc2OC)C1 (stereo not given)	i	-6.5	-4.4	0.0	-0.3	-6.2	nt	6.2
Cc1ccc(-n2[nH]c(C)c(C=Nc3ccc4[nH]c(=O)[nH]c4c3)c2=O)cc1C	i	3.0	0.5	2.6	20.5	5.2	-14.3	nt
CCCCc1nc2cc(C(=O)NCc3cn(C)nc3C)ccc2o1	i	-0.3	-23.0	-7.6	-12.0	5.8	-20.3	15.9
CCc1ccc(NC(=O)C(=O)N/N=C(\C)CC(=O)NCCOC)cc1	i	0.8	1.4	0.6	nt	-5.2	nt	0.2
COc1ccc(S(=O)(=O)N2CCN(CC(=O)Nc3cccc(F)c3)CC2)cc1	i	2.5	3.5	-15.2	-7.6	-6.4	nt	nt
Cn1c(NNC(=O)c2ccccc2F)cc(=O)n(C)c1=O	i	3.5	4.3	-6.1	-0.8	-4.5	-11.7	-5.5
CC1CN(C2CCCCC2)C(=S)NC1=O (stereo not given)	nt	-0.9	6.6	nt	nt	nt	-11.1	9.2
COc1cccc(-c2cnc3c(NC=O)cc(-c4cccc(C(=O)N(C)C)c4)cn23)c1	nt	2.3	-0.5	nt	nt	nt	4.8	-12.3
O=C(CC1CCCC1)NCCc1cn2ccccc2n1	i	0.6	2.8	-3.3	-1.0	2.6	-15.8	nt
Cc1ccnc(NS(=O)(=O)c2ccccc2)c1	i	1.9	1.5	4.5	4.0	6.2	-7.7	-2.4
CC(=O)c1ccc(C(=O)N2CCc3c([nH]c4ccccc34)C2c2cccc(C)n2)s1 (stereo not given)	i	-1.1	-3.2	7.7	9.7	-0.1	-21.4	3.4
CCN(CC)C(=O)C1CCCN(c2ccc([N+](=O)[O-])cc2/C=N/NC(=O)c2ccccc2)C1 (stereo not given)	i	-1.2	-5.7	3.9	5.4	-6.5	nt	-18.0
Cc1onc(-c2c(F)cccc2Cl)c1C(=O)NCc1ccc(S(N)(=O)=O)cc1	nt	-0.7	1.2	nt	-6.4	nt	-7.6	nt

More entries follow:
SMILES	Rce1 inh	MT1-MMP act inh	MT1-MMP act inh RFP	eIF4H FP inh	CSC inhib	PABP polyA inh	UUG fidelity	Env fusion inh
C#CCOCCOCCOCCNc1nc(N2CCN(C(=O)C([C@@H](C)CC)n3cc(C(N)Cc4ccc(O)cc4)nn3)CC2)nc(N2CCN(C(=O)[C@H](CCC(=O)O)n3cc(C(N)Cc4ccc(O)cc4)nn3)CC2)n1 (stereo not given in full)	i	-1.3	3.3	2.0	-2.1	8.2	2.1	nt
Cc1ccc(S(=O)(=O)N/N=C\C=C\c2ccccc2)cc1	i	8.4	11.1	2.3	3.1	2.0	nt	nt
CCCc1cc(=O)oc2cc(OCC(=O)N3CCOCC3)c(Cl)cc12	i	-0.6	-1.6	0.9	3.1	8.8	-1.0	4.5
Cc1ccc(NC(=O)Nc2cnccn2)c(C)c1	i	-7.3	-0.9	10.3	20.2	2.6	-1.9	5.5
COc1ccc(CC(=O)N2CCN(c3ccccc3F)CC2)cc1OC	nt	0.3	-17.0	-8.9	-1.7	12.8	1.2	-1.1
O=C(O)c1[nH]c2ccc(Br)cc2c1CCN1C(=O)c2cccc([N+](=O)[O-])c2C1=O	i	1.6	7.7	-4.5	18.0	-2.1	nt	-7.7
NS(=O)(=O)c1cccnc1Nc1c(Cl)cccc1Cl	i	-0.2	3.4	0.7	7.1	6.0	nt	nt
Cc1ccc(NC(=O)C2CCN(C(=O)[C@@H]3Cc4ccccc4CN3)CC2)c(C)c1	i	0.5	2.7	-0.4	-5.2	14.1	-12.6	-0.5
CCN(CC)CC(=O)Nc1ccc(C)cc1Br	i	-1.3	1.6	-6.5	-2.7	-3.0	-7.3	nt
CCC(C)(C)NC(=O)Nc1cc(Cl)ccc1OC	i	-1.5	-0.8	5.8	5.2	4.0	nt	9.0
Cc1cc(NS(=O)(=O)c2ccc(NC(=O)C(CC(C)C)N3C(=O)c4ccccc4C3=O)cc2)nc(C)n1 (stereo not given)	i	-3.0	6.4	7.3	-4.3	0.7	4.0	6.0
Cc1csc(NC(=O)C2CCCN(S(=O)(=O)c3ccc(Br)s3)C2)n1 (stereo not given)	i	-2.3	-15.4	7.4	-1.5	-2.6	-0.4	nt
Cc1cc(=O)n(CC=C(Cl)Cl)c2ccccc12	i	0.0	3.0	3.6	-16.0	6.8	-10.4	-182.8
Cc1ccc(S(=O)(=O)N2CCC(C(=O)OCc3c(C)noc3C)CC2)cc1C	i	7.4	2.8	nt	-3.5	nt	-8.2	-7.0

Grouped by structure: those above containing a cyano group (3)
SMILES	Rce1 inh	MT1-MMP act inh	MT1-MMP act inh RFP	eIF4H FP inh	CSC inhib	PABP polyA inh	UUG fidelity	Env fusion inh
N#C/C(=C\c1ccc(F)cc1)c1n[nH]c(Cn2cncn2)n1	i	0.5	-0.2	1.1	10.4	-5.1	nt	nt
CSC1=C(C#N)C(CC(C)C)C2=C(CCCC2=O)N1 (stereo not given)	i	2.5	-1.8	-5.3	-8.3	-5.7	nt	nt
CC(C)Cn1c(SCC#N)nc2ccccc2c1=O	i	-0.8	-0.4	-2.9	62.6	-4.3	9.6	nt

High-throughput results from PubChem BioAssay.
